From PubChem BioAssay
LANA-H2B inh – blocks KSHV LANA binding to histone H2A/H2B | Q9QR71 | cell-free LANA-H2A/H2B peptide, fluorescence polarization | inhibition, % (test concentration not listed) | 320,000 compounds, 0.6% hits | AID 2629; in the data active = inhibition mostly above about 10%, no sharp cut-off; inactive = mostly below about 6.7%;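 also: stock transfer was 7.5 nL into about 10 µL; 0% = median of vehicle wells and 100% = median of positive control wells; one replicate is shown; the record names a cut of 25% in any replicate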
Vif TR-FRET – inhibitors of Vif binding to APOBEC3G peptide, primary screen, biochemical, TR-FRET, GST-Vif 1-94, biotin-A3G peptide, dose response retest (AID 1117319) | TR-FRET GST-Vif / biotin-A3G peptide binding; higher % means a stronger effect; test concentration not given here; strong numbers were not always called active | one-dose inhibition, %; IC50 in µM for titrated hits | 260,000 compounds, 0.57% hits;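 active = above the screen mean plus three standard deviations and confirmed in dose response; inconclusive = results disagree or hit not tested in dose response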;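 also: Vif residues 1-94 fused to GST binding biotinylated APOBEC3G peptide 110-148; 0% = full assay without inhibitor and 100% = GST in place of GST-Vif; retest series ran down from 100 µM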
Beta2AR agonist – activates human beta-2 adrenergic receptor causing internalization; Am2.2-beta2AR cells, FAP receptor internalization, flow cytometry; reference of the scale not given here; response, % (test concentration not listed); 340,000 compounds, 0.43% hits; AID 504454;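 active = response above a set limit, near 3 SD of response in nonfluorescent compounds, cut at about 42% in these data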;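 also: stock transfer was 100 nL into about 11 µL; a reference agonist was the positive control; negative values mostly stem from fluorescent compounds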
Target sequence (P07550 whole entry, looked up): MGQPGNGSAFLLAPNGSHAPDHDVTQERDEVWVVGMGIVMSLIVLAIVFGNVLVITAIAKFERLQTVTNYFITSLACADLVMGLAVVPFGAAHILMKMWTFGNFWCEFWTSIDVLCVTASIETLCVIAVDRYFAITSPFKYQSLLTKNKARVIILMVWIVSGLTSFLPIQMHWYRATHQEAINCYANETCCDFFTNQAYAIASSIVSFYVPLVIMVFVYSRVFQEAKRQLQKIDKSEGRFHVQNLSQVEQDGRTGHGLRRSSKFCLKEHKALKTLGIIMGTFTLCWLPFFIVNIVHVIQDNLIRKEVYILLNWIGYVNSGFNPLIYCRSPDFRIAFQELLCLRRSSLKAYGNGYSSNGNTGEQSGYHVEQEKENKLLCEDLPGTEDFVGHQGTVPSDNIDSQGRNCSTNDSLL
HNF4A DNA FP – change in binding of human HNF4 alpha to DNA; activity change, % at 10 µM; P41235; HNF4a-FITC DNA binding, fluorescence polarization, 1 h; 360,000 compounds, 0.3% hits; in the data active = activity change above about 30%, passing the limit was not always enough;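 also: controls were the assay level and a saturating level of protein; the project sought stronger binding though the title names inhibitors; some compounds called inactive have numbers as strong as hits; positive values seem to mean higher polarization but the record does not say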
Target sequence (P41235 whole entry, looked up): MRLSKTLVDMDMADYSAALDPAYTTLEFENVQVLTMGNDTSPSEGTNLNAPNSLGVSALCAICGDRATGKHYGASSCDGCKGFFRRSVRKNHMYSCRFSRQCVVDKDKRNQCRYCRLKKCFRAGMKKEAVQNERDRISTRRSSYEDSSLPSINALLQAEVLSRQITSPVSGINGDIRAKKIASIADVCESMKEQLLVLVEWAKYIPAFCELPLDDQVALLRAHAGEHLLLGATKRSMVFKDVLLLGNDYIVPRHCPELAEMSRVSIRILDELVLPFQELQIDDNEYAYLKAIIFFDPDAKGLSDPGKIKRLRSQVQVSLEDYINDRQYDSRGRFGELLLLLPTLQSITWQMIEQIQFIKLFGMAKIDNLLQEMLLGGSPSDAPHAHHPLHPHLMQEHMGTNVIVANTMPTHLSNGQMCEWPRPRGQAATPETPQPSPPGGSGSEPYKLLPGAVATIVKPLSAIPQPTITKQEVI
RanGTP-Impb inh – disruptors of Ran-importin-beta complex formation – biochemical, FRET, CFP-Ran, YFP-importin-beta, homogeneous, primary screen; cell-free CFP-Ran/YFP-importin-beta FRET ratio; inhibition, % (concentration not given with the values); 300,000 compounds, 1.1% hits; AID 2216;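 active = most replicates above 15%; inconclusive = exactly half above 15%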;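 also: 0% = DMSO wells and 100% = Ran loaded with GDP instead of GTP; wells of about 40 µL received 100 nL stock; the first replicate is given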
Calb FLC – C. albicans growth modulation with fluconazole; AID 1979; C. albicans CaCi-2 (fluconazole-resistant clinical isolate) + fluconazole, Alamar Blue growth, 48 h; 300,000 compounds, 0.57% hits; growth inhibition, % (test concentration not listed);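 active = most replicates above 75%; inconclusive = exactly half above 75%; inactive = most below 75%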;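 also: all wells also contain fluconazole at 8 µg/ml as a sub-toxic cotreatment; 0% = median of DMSO wells and 100% = median of geldanamycin control wells; wells of about 8 µL received 7.5 nL stock; the first replicate is given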
ALR H2O2 inh – human ALR oxidase inhibition via reduced H2O2; P55789; purified ALR, DTT oxidation, H2O2 HRP-luminol luminescence; inhibition, % (no concentration beside the values); 290,000 compounds, 3.8% hits; AID 485317;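 active = mean and each replicate at 75% or more; inconclusive = only one of the two met; inactive = neither met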;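 also: stock transfer was 7.5 nL into about 7.5 µL; 0% = neutral wells and 100% = wells with inactivated enzyme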
Target sequence (P55789 whole entry, looked up): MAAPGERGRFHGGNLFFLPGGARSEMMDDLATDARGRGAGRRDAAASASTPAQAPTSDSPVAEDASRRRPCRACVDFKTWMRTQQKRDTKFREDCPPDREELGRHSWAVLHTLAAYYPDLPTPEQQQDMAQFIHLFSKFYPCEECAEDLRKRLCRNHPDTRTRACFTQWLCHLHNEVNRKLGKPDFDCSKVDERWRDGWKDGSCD
The depositor's hits bear a star; ? = inconclusive; / = not tested or not shown; & = joins results of further samples.

SMILES | LANA-H2B inh | Vif TR-FRET | Beta2AR agonist | HNF4A DNA FP | RanGTP-Impb inh | Calb FLC | ALR H2O2 inh
COc1ccc(CCN2Cc3c(N)cccc3C2=O)cc1OC | -1.0 | / | 11 | 4.3 | ? | 0 | /
CCOc1cc(C)ccc1OCc1nnc(SCC(=O)c2cccc([N+](=O)[O-])c2)n1C | 0.1 | 21% | -11 | 3.4 | 1.8 | 5 | 18
O=C(NCCCn1ccnc1)C(=O)NCC(c1cccnc1)N1CCN(c2ccccc2)CC1 (stereo not given) | -1.8 | 10% | -10 | -1.9 | 0.1 | 12 | 99*
Nc1nnc(C(c2ccccc2)c2ccccc2)s1 | -3.2 | 3% | 2 | 3.1 | -4.0 | 2 | -2
Cc1ccc(COc2ccc(CNCCCN3CCCCCC3=O)cc2)cc1 | 0.9 | -3% | 0 | -0.8 | -0.9 | -6 | /
O=c1[nH]c(CSc2ncnc3sc(-c4ccccc4)cc23)nc2ccccc12 | 2.7 | / | 3 | 12 | 0.5 | -9 | 14
CCC(C(=O)O)n1nnc(-c2ccc(-c3ccc(OC)cc3)cc2)n1 (stereo not given) | -1.8 | 8% | -1 | 0.4 | 1.2 | ? | 7
CN(Cc1ccccc1)S(=O)(=O)c1ccc(NC(=S)NC(=O)C2CCCC2)cc1 | -1.0 | -2% | 0 | -2.5 | -2.9 | ? | -9
COc1ccccc1NC(=O)/C(=C/c1cccc([N+](=O)[O-])c1)c1ccccc1 | 6.0 | / | -8 | -1.4 | -2.1 | -5 | -2
CCOc1ccc(-c2c(C(=O)N/N=C/c3ccc(OC(C)C)cc3)nnn2-c2nonc2N)cc1 | -3.4 | -7% | -4 | -0.3 | -1.6 | 8 | /
CCc1nnc2c(NCCc3ccccc3)nc3ccccc3n12 | 1.4 | 0% | 0 | 4.7 | -1.7 | -2 | -16
O=C(COc1ccccc1)NNc1nc2c(F)cc(F)cc2s1 | -1.8 | / | -4 | -2.0 | -2.0 | 6 | -12
Cc1ccc(NC(=O)CSc2nnc(CSc3nc(C)cc(C)n3)n2Cc2ccco2)c(C)c1 | 2.1 | 5% | -8 | -3.8 | -1.2 | -3 | /
CCC(C(=O)NC1CCCC1)N(Cc1ccc2c(c1)OCO2)C(=O)c1snc(C(N)=O)c1N (stereo not given) | 2.0 | 0%&-4% | -1 | 1.3 | 4.9 | -16 | -9
CC1=C(C(=O)N2CCCCC2)C(c2cccs2)C2=C(CCCC2=O)N1 (stereo not given) | 4.7 | 2% | 2 | 3.3 | 0.9 | 2 | -23
O=C(CNc1ccc2ccccc2c1)NNC1=NCCC1 | 0.2 | / | 2 | 2.8 | -0.2 | 22 | 84*
O=S(=O)(c1ccc(Cl)cc1)N1CCCc2ccccc21 | 8.1 | / | -2 | 3.1 | -2.0 | 3 | -9
CN(CC(=O)NC1CCCCC1)S(=O)(=O)c1ccc(Br)s1 | 2.9 | -7%&30% | -7 | -4.5 | 2.9 | -3 | -15
CC(=O)c1cccc(S(=O)(=O)N2CCN(CCOc3ccccc3)CC2)c1 | 3.2 | -3% | -1 | 1.3 | / | / | 11
Cc1noc(C)c1CSc1ncnc2ccccc12 | 3.9 | -1% | 2 | 3.5 | 1.1 | 4 | 5
O=C(CSc1nc(=O)n(CCCN2CCOCC2)c2c1CCC2)Nc1cccc(F)c1 | -0.6 | -2% | -3 | -2.1 | -1.0 | 4 | 97*
CCCc1nc2oc3c(OCC)ncnc3c2c2c1COC(C)(C)C2 | -1.5 | -2% | -6 | 1.7 | -3.5 | 7 | 1
COC(=O)c1ccc(OC)c(Cn2c(=O)n(C)c(=O)c3sccc32)c1 | -8.6 | / | -4 | 1.1 | 2.2 | -3 | -23
O=C(NC1CCCCC1)OCCN1CCN(Cc2ccccc2)CCC1=O | 2.3 | ? | / | / | 0.7 | -3 | -3
CCOC(=O)c1ccccc1NC(=O)COC(=O)CN1C(=O)C2CC=CCC2C1=O (stereo not given) | 162* | -9% | 7 | -5.3 | 2.4 | -1 | 3

New compounds follow
SMILES | LANA-H2B inh | Vif TR-FRET | Beta2AR agonist | HNF4A DNA FP | RanGTP-Impb inh | Calb FLC | ALR H2O2 inh
Cc1ccc(NC(=O)c2c(NC(=O)CCC(=O)O)sc3c2CCCCC3)cc1 | -3.0 | / | -3 | -1.0 | -0.8 | 49 | -5
COc1ccc(CC(=O)NCCC(C)C)cc1S(=O)(=O)N1CCOCC1 | -4.2 | 32% | 0 | 0.0 | 3.7 | 1 | -15
COc1ccc(NC(=O)COC(=O)CCC2CCCC2)c(OC)c1 | 1.1 | / | -2 | -1.9 | / | / | 3
C/C(N)=C(/C#N)C(=O)COC(=O)c1cccc2ccccc12 | 2.6 | ? | 11 | 6.9 | 1.0 | 31 | 0
COc1cc2c(cc1OC)CN(C(=O)c1ccncc1)CC2 | 1.9 | -3% | 5 | -2.4 | 2.2 | 1 | -22
N=C1/C(=C\c2ccc(SCc3ccccc3)o2)C(=O)N=C2SC(CC(=O)N3CCOCC3)=NN12 | 0.7 | 19% | -7 | 12 | 7.8 | 5 | 98*
Cc1c(Cl)c([N+](=O)[O-])nn1CC(=O)N1CCN(C23CC4CC(CC(C4)C2)C3)CC1 | -5.0 | / | 7 | -0.5 | 2.0 | -2 | /
Cc1nnc(SCc2nc(N)nc(Nc3ccccc3)n2)s1 | -8.4 | 5% | -5 | 10.0 | 3.9 | 11 | -2
Cc1cnc(NC(=O)c2cc3c(C)nn(Cc4ccccc4Cl)c3s2)s1 | -7.4 | -12% | -2 | -0.2 | 2.9 | -6 | -1
N#CCSc1nn(-c2ccc(F)cc2)c(=S)s1 | -1.1 | 8% | 5 | 4.0 | -2.6 | -13 | -1
CN(C)CCN(Cc1ccccc1)S(=O)(=O)c1csc(C(N)=O)c1 | 0.3 | / | -7 | -4.2 | 2.9 | -3 | -2
CC(/C=N/n1c(-c2ccco2)n[nH]c1=S)=C\c1ccccc1 | 14 | / | 3 | 1.5 | 2.2 | 17 | 55
O=C(O)c1nn(-c2ccccc2)c(-c2ccccc2)c1C(=O)c1ccccc1 | 0.8 | -7% | 14 | -3.5 | 2.7 | 6 | 6
O=S(=O)(O/N=C1\CCCc2ccccc21)c1ccc(Cl)cc1 | -0.3 | -3% | -5 | 0.7 | 1.5 | 0 | -9
CCN(c1cccc(C)c1)S(=O)(=O)c1c(C)[nH]c(C)c1C(=O)N1CCCCC1 | 1.0 | 2% | -1 | 2.3 | 4.7 | 0 | 2
CC(C)Oc1ccc(CNCC2(O)CCOC(C)(C)C2)cc1 (stereo not given) | 1.7 | 64% | -2 | 1.0 | 4.4 | -13 | -3
Cc1ccc(S(=O)(=O)N2CCCC(C(=O)NC3=NCCS3)C2)cc1 (stereo not given) | 1.0 | -6% | 5 | 1.4 | ? | -6 | 3
COc1ccc(Cn2ccnc2SCC(=O)Nc2nnc(C)s2)cc1 | 4.2 | / | -9 | 7.0 | -2.9 | -11 | 35
COc1c(F)c(F)c(C(=O)O)c(Nc2ccccc2C)c1F | 1.6 | -2% | 2 | -0.2 | 2.9 | 1 | 19
COc1cccc(N(CC(=O)NC2CCCCC2)C(=O)CCCC(=O)Nc2ccccn2)c1 | 3.0 | ? | 0 | 1.3 | 4.4 | 3 | -12
Cc1nn(-c2ccccc2)c2[nH]c(=O)c(CNc3ccc4c(c3)OCCO4)cc12 | 2.9 | 18% | 5 | 1.1 | 2.1 | -10 | 17
O=C(COc1ccc(S(=O)(=O)N2CCOCC2)cc1)NCCN1CCOCC1 | 2.4 | / | 0 | 2.1 | ? | 1 | -3
CSc1ccccc1NC(=O)c1cc(-c2ccc3c(c2)OCO3)on1 | -2.4 | / | 1 | 2.4 | ? | -14 | /
CC(=O)OCC(=O)Nc1ccc(SC(F)F)cc1 | 0.6 | -5% | 7 | -4.1 | -2.8 | 3 | 99*
O=C(Nc1cccc(F)c1)c1ccc(S(=O)(=O)NCC2CCCO2)cc1 (stereo not given) | -11 | 20% | 2 | -0.7 | 21* | -13 | 0

Next part:
SMILES | LANA-H2B inh | Vif TR-FRET | Beta2AR agonist | HNF4A DNA FP | RanGTP-Impb inh | Calb FLC | ALR H2O2 inh
CCOC(=O)N1CCN(C(=O)CNC(=O)c2nn(-c3ccc(OC)cc3OC)c(=O)c3ccccc23)CC1 | 4.9 | / | -4 | -0.7 | -0.3 | 12 | -11
Cc1ccc(/C=N/N2CCN(Cc3cccc4ccccc34)CC2)o1 | -3.7 | 2% | 1 | -3.1 | 1.2 | 0 | 13
O=C(CCNc1ccc(Cl)cc1)c1cccs1 | 6.6 | / | -7 | -0.8 | ? | -2 | /
Cc1cnc(CN(C)C(=O)c2ccc3oc(Cc4ccccc4)nc3c2)[nH]1 | -7.0 | / | -21 | -3.6 | 3.5 | 18 | -6
O=C(Nc1cccc(Cl)c1Cl)C1CCCO1 (stereo not given) | -2.9 | 9% | 3 | 0.3 | -0.2 | 1 | 0
Cc1nc2ccccc2c(=O)n1NC(=O)c1ccc(C(C)(C)C)cc1 | 1.8 | -12% | 1 | -1.1 | 4.1 | -8 | -5
Cc1ccn2c(Nc3ccccc3)c(-c3ccccn3)nc2c1 | 0.2 | 10% | 17 | 0.0 | -3.1 | 5 | 30
CCCCCCC(=O)N(O)C1CC(=O)N(c2ccc(C)cc2)C1=O (stereo not given) | -0.8 | 7% | 10 | -2.8 | 7.0 | -19 | -2
O=C(/C=C/c1cccc(Br)c1)NCc1ccncc1 | -1.4 | -1% | -6 | -1.8 | -1.1 | ? | 0
COc1ccc(-c2cc(C(=O)NCCN3CCOCC3)c3cc(C(C)C)ccc3n2)cc1 | 2.7 | / | 6 | 2.6 | -2.6 | -21 | /
Cc1cc(=O)n2[nH]c(=O)c(N=Nc3ccccc3)c2[nH]1 | -2.2 | 7% | 0 | -0.3 | 3.8 | -5 | 18
COc1ccc(CCN2CC(C(=O)N(C)Cc3cccnc3)CC2=O)cc1OC (stereo not given) | 1.9 | -4% | 1 | -3.4 | / | / | 4
CCOc1ccc(Br)cc1S(=O)(=O)Nc1ccc(N2CCOCC2)cc1 | -0.2 | 13% | 0 | -3.8 | 2.1 | -8 | 48

Not a retest: nine of the compounds above.
SMILES | LANA-H2B inh | Vif TR-FRET | Beta2AR agonist | HNF4A DNA FP | RanGTP-Impb inh | Calb FLC | ALR H2O2 inh
COc1ccc(CCN2Cc3c(N)cccc3C2=O)cc1OC | -1.0 | / | 11 | 4.3 | ? | 0 | /
CCOc1cc(C)ccc1OCc1nnc(SCC(=O)c2cccc([N+](=O)[O-])c2)n1C | 0.1 | 21% | -11 | 3.4 | 1.8 | 5 | 18
O=C(NCCCn1ccnc1)C(=O)NCC(c1cccnc1)N1CCN(c2ccccc2)CC1 (stereo not given) | -1.8 | 10% | -10 | -1.9 | 0.1 | 12 | 99*
Nc1nnc(C(c2ccccc2)c2ccccc2)s1 | -3.2 | 3% | 2 | 3.1 | -4.0 | 2 | -2
Cc1ccc(COc2ccc(CNCCCN3CCCCCC3=O)cc2)cc1 | 0.9 | -3% | 0 | -0.8 | -0.9 | -6 | /
O=c1[nH]c(CSc2ncnc3sc(-c4ccccc4)cc23)nc2ccccc12 | 2.7 | / | 3 | 12 | 0.5 | -9 | 14
CCC(C(=O)O)n1nnc(-c2ccc(-c3ccc(OC)cc3)cc2)n1 (stereo not given) | -1.8 | 8% | -1 | 0.4 | 1.2 | ? | 7
CN(Cc1ccccc1)S(=O)(=O)c1ccc(NC(=S)NC(=O)C2CCCC2)cc1 | -1.0 | -2% | 0 | -2.5 | -2.9 | ? | -9
COc1ccccc1NC(=O)/C(=C/c1cccc([N+](=O)[O-])c1)c1ccccc1 | 6.0 | / | -8 | -1.4 | -2.1 | -5 | -2
